Compound activity (PubChem)
Mtb hypoxia rep: reduces hypoxia-regulated biosensor signal in M. tuberculosis; hit rate 0.1% among 300,000; AID 1159583; fluorescence inhibition, % (test concentration not listed); M. tuberculosis hypoxia-regulated fluorescent reporter, fluorescence;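 active = 35 to 45% if threefold the growth effect, above 45% if 1.5-fold the growth effect; inactive = the rest, general growth blockers included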;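 note: wells of about 50 µL received 100 nL stock; 0% = vehicle wells and 100% = reference inhibitor wells; whole bacteria with a GFP reporter of the hypoxia response; strong numbers were not always called active; many hits fall short of the cut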
PrP UTR inh: suppresses PrP 5' UTR mRNA reporter expression. cell-based PrP 5' UTR mRNA reporter, plate reader. inhibition, % (test concentration not listed). hit rate 0.35% among 340,000;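 active = every replicate at 50% or more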;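 note: 0 = median of the neutral control wells; tested in H4 reporter cells; numbers are from one replicate; inactives centre near -14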
BJeLR viability: BJeLR cell viability loss; hit rate 0.17% among 300,000; inhibition, % (no concentration beside the values); AID 1554; BJeLR (HRASV12) viability, CellTiter-Glo ATP luminescence, 48 h; reference of the scale not given here;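 active = replicate mean above 50%; inconclusive = above 50% but judged a plate artefact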;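 note: 50 nL library stock added to about 25 µL; numbers are from one replicate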
ugtP null kill: growth inhibition of S. aureus ugtP deletion strain; S. aureus RN4220 ugtP deletion, OD600 growth, 16 h; some inactives read as strong as hits; growth inhibition, % (test concentration not listed); hit rate 0.54% among 330,000;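 active = z-score under -3 and OD600 up to 0.15 on both plates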;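 note: plate controls were untreated wells for no effect and antibiotic for full effect; wells of about 80 µL received 100 nL stock; the first replicate is given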
Bead autofluor: counter-screen for toxin protease inhibitors: compound fluorescence | fluorescence intensity (test concentration not listed) | hit rate 3.1% among 360,000 | compound autofluorescence counterscreen, microsphere flow cytometry; active compounds read high;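 active = at least 3 SD above the mean of all compounds, about 16000 in these data; inconclusive = too few beads counted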;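 note: 100 nL of 1 mM stock went into each well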
Sa RN4220 lethal: S. aureus RN4220 growth inhibition | OD600, 16 h | inhibition, % (test concentration not listed) | hit rate 0.33% among 330,000 | AID 1259311;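 active = z-score of -3 or lower and OD600 up to 0.18 on both plates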;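 note: plate controls were untreated cells for no effect and reference antibiotic for full effect; stock transfer was 100 nL into about 80 µL; one replicate is shown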
Mtb hypoxia rep growth: further read-out of Mtb hypoxia rep, marked with its call; growth inhibition, %; measured here: M. tuberculosis growth (absorbance);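 0% = vehicle and 100% = reference antibiotic; read after six days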
An asterisk follows results filed as active; ? = inconclusive; . = not tested or not shown. An unsorted share of the library (roughly 3.9% active in at least one column).

SMILES | Mtb hypoxia rep | Mtb hypoxia rep growth | PrP UTR inh | BJeLR viability | ugtP null kill | Bead autofluor | Sa RN4220 lethal
Cc1ccc(C(=O)N/C(=C\c2ccco2)C(=O)NC2CCS(=O)(=O)C2)cc1 (configuration not stated) | 12 | 1 | -17 | 3 | 9 | 5659 | 5.3
CCOc1ccccc1Nc1nc(-c2sc(NC(=O)c3ccco3)nc2C)cs1 | . | . | 9 | -5 | . | 3122 | .
CC(C)(C)[C@H]1C=C(C(=O)NC2CC2)O[C@@H](OCCCCO)C1 | . | . | -3 | -5 | . | 3840 | .
CNC(=O)c1ccccc1-c1cn(C)c2ccccc2c1=O | -10 | 1 | 0 | -10 | 3 | 4243 | 1.9
Cc1cc(C)c(-n2c(SCC(=O)N3CCOCC3)n[nH]c2=O)c(C)c1 | -3 | -3 | -16 | -2 | -3 | 2856 | 4.3
Cn1c(=NC(=O)c2ccco2)sc2ccccc21 | 24 | 17 | -61 | 6 | 7 | 4126 | 16
CCCNC(=O)C1Cc2cc(S(=O)(=O)N3CCCC3)ccc2N1C(C)=O (configuration not stated) | -2 | 4 | -19 | -10 | 4 | 5790 | 6.3
COc1ccc(CCC(C)NC(=O)CCc2ccccc2)c(OC)c1 (configuration not stated) | 7 | -4 | -24 | -10 | 5 | 2944 | 1.9
CCOc1ccc(S(=O)(=O)Nc2cccc(C(=O)NCC(c3ccccc3)N(C)C)c2)cc1 (configuration not stated) | -5 | -1 | -3 | -10 | 0 | ? | 0.3
O=C(NCC(=O)N1CCN(Cc2c(F)cccc2Cl)CC1)c1cccc(Cl)c1 | 5 | -9 | -13 | . | 13 | 8799 | -0.1
Oc1ccccc1C=NNC(=S)NC1CC2CC1C1C=CCC21 (configuration not stated) | 15 | 23 | . | . | 12 | . | -6.0
O=c1[nH]c2ccccc2[nH]c1=O | 13 | 11 | 1 | -7 | -4 | 3905 | 2.6
COc1cccc2cc(C(=O)CC3(O)C(=O)N(Cc4ccccc4)c4ccccc43)c(=O)oc12 (configuration not stated) | 2 | 9 | -19 | 3 | 3 | 20419* | 3.4
C#CCCOC(=O)N1C2=NC(C(=O)OC)=C(C(=O)OC)[C@@H]3N(CC=C)c4ccccc4[C@]23C[C@H]1C(=O)OC | . | . | -28 | 5 | . | 3843 | .
COc1ccc(CCNC(=O)C(=O)NCC2OCCN2S(=O)(=O)c2ccc(OC)c(C)c2)cc1 (configuration not stated) | 5 | 6 | -16 | -3 | -4 | 5981 | -14
CCOC(=O)c1nn(-c2cccc(OC)c2)c(-c2ccccc2)c1C(=O)c1ccccc1 | 2 | 8 | -3 | 0 | 15 | 3532 | 7.6
CCOC(=O)C1=C(c2ccccc2)NC(N)=NC1c1ccc(OCc2ccc(C(=O)OC)cc2)cc1 (configuration not stated) | 7 | 8 | 4 | 18 | 1 | 4149 | 35
O=C(/C=C/Sc1ccccc1)c1ccccc1 | 23 | 16 | -16 | -14 | 15 | 8058 | 21
COc1cccc(-c2onc3ccc(C(=O)/C=C/N(C)C)cc23)c1 | 6 | 6 | -21 | -12 | -12 | 3487 | 6.0
O=S(=O)(c1ccc2nc(COc3ccc(Cl)cc3Cl)[nH]c2c1)N1CCOCC1 | 5 | -3 | -12 | -3 | -11 | 7222 | -2.9
Cc1nc2ccc(S(=O)(=O)NCC(=O)N3CCc4ccccc43)cc2s1 | 6 | 2 | -20 | 2 | 1 | 3266 | 5.3
CCOc1ccc(N(C(=O)c2snc(C(N)=O)c2N)C(C(=O)NC2CCCC2)C(C)C)cc1 (configuration not stated) | 2 | 0 | -26 | 0 | 8 | 5700 | 2.3
NNC(=O)c1nc[nH]c1C(=O)Nc1ccccc1[N+](=O)[O-] | -5 | -1 | -6 | 8 | 4 | 3448 | 3.9
O=C(Nc1cccc(Cl)c1Cl)C1CC(=O)N(c2ccc(Br)cc2)C1 (configuration not stated) | 2 | 1 | -6 | 3 | -2 | 9927 | 4.7
Cc1nnc(NC(=O)CCN2C(=O)/C(=C\c3ccccc3)SC2=S)s1 | 7 | 6 | -13 | -4 | 5 | 4420 | 5.7
CC1(C)CSC(Nc2ccc(F)c(Cl)c2)=N1 | 6 | 2 | -43 | 7 | 11 | 3869 | 5.0
O=C(CNS(=O)(=O)c1ccccc1)N1CCN(c2ccccc2)CC1 | 4 | 1 | -11 | -1 | 5 | 5690 | 4.0
O=C(O)CCCCCCCCc1cn(Cc2ccc(C(=O)c3ccccc3)cc2)nn1 | 8 | 10 | -18 | -3 | 12 | 4097 | 15
O=[N+]([O-])c1cccnc1N1CCC(c2cc(-c3ccc(Cl)cc3Cl)n[nH]2)CC1 | . | . | -13 | -1 | 37 | 3364 | -0.6
O=c1c(-c2ccccc2)c(O)nc(SCCN2CCOCC2)n1-c1ccccc1 | 2 | 6 | -9 | -3 | 4 | 2165 | 1.4
CCOC(=O)c1sc(NC(=O)CCc2ccccc2)nc1C | 7 | 0 | -28 | 31 | 10 | 3763 | 4.7
N#Cc1c2n(c(=O)[nH]c1=O)CCCCC2 | 4 | 2 | -15 | 0 | 11 | 2542 | 3.2
COC(=O)c1sc(NC(=O)COc2ccccc2C)nc1C | 3 | 6 | -15 | 4 | 4 | 4454 | 0.3
Cc1cc(N2CCN(C(=O)Nc3ccccc3C#N)CC2)c2ccccc2n1 | -7 | 0 | -43 | 6 | 2 | . | -1.5
O=S(=O)(c1cccc(C(F)(F)F)c1)N1CCN(c2nnnn2-c2ccccc2)CC1 | 3 | -2 | -3 | 0 | 6 | 7844 | 4.0
Cc1ccn2cc(-c3cccc(S(=O)(=O)N4CC(C)OC(C)C4)c3)nc2c1 (configuration not stated) | -8 | 3 | 2 | 0 | -25 | 5416 | 0.9
O=C(O)c1ccc(N2CCCCC2)cc1 | 3 | 7 | -24 | -1 | 1 | 9177 | 1.3
Cc1c(C(=O)NCC2COc3ccccc3O2)oc2ccc(S(=O)(=O)N3CC(C)CC(C)C3)cc12 (configuration not stated) | 0 | 1 | -13 | 1 | -20 | 9413 | -1.7
CN(C)C(=NS(=O)(=O)c1ccccc1)c1ccc(F)cc1 | 2 | -1 | . | . | 11 | . | 5.5
O=C(CCNS(=O)(=O)c1ccc(Cl)cc1)N1CCN(c2ncccn2)CC1 | -6 | -2 | -9 | . | 2 | . | 5.3
C#CCOCCOCCOCCNc1nc(N2CCOCC2)nc(N2CCN(C(=O)[C@H](Cc3cc4ccccc4[nH]3)n3cc([C@@H](N)CC(C)C)nn3)CC2)n1 | . | . | -7 | -4 | . | 4350 | .
CCn1c(Cc2ccc(OC)cc2)nnc1SCC(=O)N1CCN(c2ccccc2)CC1 | 11 | 17 | -12 | 4 | 8 | 8558 | 2.7
CSc1ccc(N=Nc2c(C)[nH]n(C)c2=O)cc1 | 8 | 12 | -41 | 7 | -1 | 4026 | 6.5
COc1ccc(C(=O)c2ccccc2O)c(O)c1 | 11 | 2 | -34 | . | 5 | 4752 | 14
CCOC(=O)N1CCN(C(=O)C2CCN(c3nnc(-n4cccc4)s3)CC2)CC1 | . | . | -14 | 4 | 2 | 5545 | 0.6
N#CCC(=O)c1sccc1-n1cccc1 | 9 | 5 | -5 | -11 | -1 | 3168 | 8.3
O=C(CSc1nnc(Nc2ccccc2)s1)Nc1cccc(S(=O)(=O)N2CCCCC2)c1 | 10 | 2 | -7 | -16 | 51 | 2502 | 22
CN=C(c1ccccc1)c1c(C)cccc1C | 1 | 0 | -9 | 2 | 9 | 2177 | 5.1
CCn1ccnc1CN1CCC(n2nccc2NC(=O)c2ccccc2OC)CC1 | 4 | 7 | -4 | 5 | 11 | 6485 | 1.8
Cc1nc(NN=Cc2ccc(O)cc2)c2cnn(-c3ccccc3)c2n1 | -4 | 0 | . | . | 42 | . | 0.3
Cc1ccsc1C(=O)C1CCCN(Cc2cc(F)ccc2-n2cccn2)C1 (configuration not stated) | -2 | -4 | -14 | 6 | -3 | 4363 | 7.3
CN1CCCN(C(=O)CC(c2ccccc2)c2ccccc2)CC1 | 11 | 1 | 3 | -6 | -3 | 2164 | 3.5
O=C(CN1C(=O)/C(=C\c2cccs2)SC1=S)Nc1cccc(C(=O)O)c1 | 12 | 3 | 0 | 5 | 3 | 4583 | 8.0
CCc1ccccc1NC(=O)CN1CCN(C(=O)COc2ccccc2C#N)CC1 | 2 | 2 | -16 | . | -2 | 5701 | 6.8
COc1cccc(C(=O)C2CCCN(Cc3cccc(-n4nc(C)cc4C)c3)C2)c1 (configuration not stated) | 15 | 8 | 2 | -6 | 7 | 3673 | 0.5
Cc1ccc(-c2noc(CSc3nnc(CCc4ccccc4)n3-c3ccccc3)n2)cc1 | 4 | 6 | 4 | 3 | -29 | 15964 | 7.2
CCN1CCN(S(=O)(=O)c2ccc(OC)c(NC(=O)c3ccccc3)c2)CC1 | 4 | 8 | 17 | 7 | -1 | 5636 | 6.1
COc1ccc(-c2cc(C(F)(F)F)n3nc(C(=O)N(C)Cc4ccccc4)cc3n2)cc1OC | 5 | 8 | -3 | 8 | 10 | 4903 | 20
O=C(Nn1c(=O)[nH]c2ccccc2c1=O)c1ccco1 | -12 | 4 | -20 | -3 | -14 | 9036 | 2.3
O=C(NC1CCCCCC1)C1c2ccccc2C(=O)N1C1CC1 (configuration not stated) | 6 | 9 | -15 | -2 | 14 | 11269 | 1.0
(listing goes on)
SMILES | Mtb hypoxia rep | Mtb hypoxia rep growth | PrP UTR inh | BJeLR viability | ugtP null kill | Bead autofluor | Sa RN4220 lethal
O=C1NC(=S)NC(=O)C12C(c1ccccc1)NC(=S)NC2c1ccccc1 (configuration not stated) | 15 | -2 | -18 | 4 | 19 | 2222 | 3.5
N/C(=N\OC(=O)c1ccc2ccccc2c1)c1cccc([N+](=O)[O-])c1 | . | . | -25 | -1 | . | 2697 | .
O=C(NC1CCCCC1)c1cc(-c2ccc(Cl)cc2)on1 | 6 | -7 | -48 | -17 | -3 | 2965 | 3.1
CC(C)[C@H](NC(=O)Nc1ccc(S(N)(=O)=O)cc1)C(=O)O | 1 | 6 | -3 | -11 | -1 | 11313 | 0.1
O=C(c1ccccc1[N+](=O)[O-])n1cnc2ccccc21 | -1 | 6 | -25 | -5 | -3 | 2705 | 12
COCCN(Cc1nc(C2(c3ccc(C)cc3)CCCC2)no1)C(C)C | 0 | -3 | -25 | -20 | 6 | 3925 | 21
O=C1CC(c2cccc([N+](=O)[O-])c2)c2cc3c(cc2N1)CCC3 (configuration not stated) | . | . | -16 | 7 | 2 | 4474 | -9.0
O=C(CN1CCCCC1)NCC1(c2ccccc2)CCCC1 | 4 | 0 | -3 | 2 | 8 | 2765 | 1.8
CC1(C)CC(=O)c2cc(C(=O)NNc3ccccc3)c(=O)n(-c3ccccc3)c2C1 | -12 | 5 | -24 | -18 | -9 | 4667 | -2.5
Cc1ccc(Oc2cc(N3CCOCC3)nc(-c3ccccc3)n2)cc1 | 3 | 7 | -13 | . | -2 | 3232 | -17
Cc1nnc(SCC(=O)Nc2ccc(N3CCOCC3)cc2)o1 | -2 | 3 | -7 | 7 | 2 | 3798 | -4.0
COc1cccc(NC(=O)Cc2ccc3ccccc3c2)c1 | 1 | -9 | -15 | -10 | 3 | 3191 | -4.1
CCOP(=O)(OCC)C(=NOC(=O)c1ccc(Cl)cc1Cl)C(N)=O | 4 | 22 | . | . | -2 | . | -1.8

Six records drawn at random from the list so far, as already listed:
SMILES | Mtb hypoxia rep | Mtb hypoxia rep growth | PrP UTR inh | BJeLR viability | ugtP null kill | Bead autofluor | Sa RN4220 lethal
O=C(c1ccccc1[N+](=O)[O-])n1cnc2ccccc21 | -1 | 6 | -25 | -5 | -3 | 2705 | 12
O=C1NC(=S)NC(=O)C12C(c1ccccc1)NC(=S)NC2c1ccccc1 (configuration not stated) | 15 | -2 | -18 | 4 | 19 | 2222 | 3.5
O=C(NC1CCCCC1)c1cc(-c2ccc(Cl)cc2)on1 | 6 | -7 | -48 | -17 | -3 | 2965 | 3.1
O=C(CN1CCCCC1)NCC1(c2ccccc2)CCCC1 | 4 | 0 | -3 | 2 | 8 | 2765 | 1.8
CC(C)[C@H](NC(=O)Nc1ccc(S(N)(=O)=O)cc1)C(=O)O | 1 | 6 | -3 | -11 | -1 | 11313 | 0.1
CCOP(=O)(OCC)C(=NOC(=O)c1ccc(Cl)cc1Cl)C(N)=O | 4 | 22 | . | . | -2 | . | -1.8
